Source: PubChem BioAssay
LT uptake inh: inhibitors of anthrax lethal toxin internalization; Cells, anthrax lethal toxin internalization, FRET ratio (460/530); Potency, µM (doses to about 40 µM), for the others: at the top dose activity change, negative = inhibition, actives largely listed as inhibitors; 70,000 compounds, 0.67% hits; AID 912; active = well fitted falling ratio curve with the 530 nm signal flat; inconclusive = other ratio curves, or a change in one channel alone; inactive = flat curves in the ratio and both channels; the % refers to the ratio; also: % is scaled to controls: 0 for no effect and ±100 for the full control effect; nearly all actives have a fitted effect of over 50% in size; tested in ME-180 cells; beta-lactamase reporter
SmPrx2 inh: Schistosoma mansoni Prx2 inhibition; S. mansoni Prx2 activity coupled to TGR/GSH (TGR is thioredoxin glutathione reductase), NADPH fluorescence loss, qHTS; some inactives read as strong as hits; Potency, µM; 65,000 compounds, 0.07% hits; active means full or partial inhibition curve with a strong effect at the top dose; inconclusive means weaker partial or single-point curve; inactive means no accepted curve; also: series up to 57 µM; many of its hits are not listed in these tables
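qHTS, coupled TGR/Prx2 format; 15 min compound preincubation at RT; reaction started with H2O2 (2.5 mM aliquot); kinetic NADPH fluorescence decrease, ex 365/em 450 nm.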
The depositor's hits bear a star; ? = inconclusive; · = not tested or not shown; & = joins results of further samples; [ ] = dose if it differs, or a comment. Potency is read from the fitted curve at half-maximal effect.

structure,SmPrx2 inh,LT uptake inh
CCN1C(=O)[C@H]2[C@H]3[C@H](O)[C@H](O)C/C(=N/OC/C=C(\C)CCC=C(C)C)[C@@H]3CC[C@@H]2C1=O,·,0%[0.32 µM]
NC(=O)C1CCN(c2nc(-c3ccccc3)nc3ccccc23)CC1,>57,19%
O=C(NCc1ccccn1)C1CCCN(Cc2cnn(-c3ccccc3)c2-n2cccc2)C1 (configuration not stated),>57,-4%
O=C(O)CC1NC(=O)N(c2ccc(Cl)cc2)C1=O (configuration not stated),>57,-13%
O=C(O)C1CCCCC1C(=O)NCCc1ccc(Cl)cc1 (configuration not stated),>57,-9%
COc1ccc(OC)c(-c2cc(C(=O)O)c3cc4ccccc4cc3n2)c1,>57,4%[8 µM]
Cc1ccc(C)c(N2CCN(C(=O)CCCOc3cc(=O)n(C)c4ccccc34)CC2)c1,>57,?
COc1ccc(Oc2ncc3nc(CCc4ccccc4)c(=O)n(C[C@H]4CCCO4)c3n2)cc1,>57,?
COC(=O)Cc1nc2ccccc2[nH]1,>57,?
CC(C)c1ccc(NC(=O)C2C3C=CC4(CN(CCCN5CCOCC5)C(=O)C24)O3)cc1 (configuration not stated),>57,?
O=C(Cn1c(=O)oc2ccccc21)N(Cc1ccccc1)C1CCS(=O)(=O)C1 (configuration not stated),>57,8%
CCNc1nc2c(c(=O)n(Cc3ccccc3)c(=O)n2C)n1Cc1ccccc1,>57,-6%
Cc1occc1-c1nnc(SCC(=O)c2c(N)n(Cc3ccccc3)c(=O)n(C)c2=O)n1C,>57,10%
Cc1ccc(OCC2Cn3c(nc4c3c(=O)n(C)c(=O)n4C)O2)cc1 (configuration not stated),>57,0%
CCCCNC(=O)COC(=O)c1cc2c(C)nn(-c3ccccc3)c2s1,>57,·
Cc1[nH]c2ccccc2c(=O)c1CN(C)Cc1ccccc1,>57,3%
CC(=O)SCC[N+](C)(C)C,>57,4%
Cc1nnc(Sc2nc3ccccc3o2)c2ccccc12,?,?
CCc1nc(SCC(=O)N2CCCc3ccccc32)c2c(=O)n(C)c(=O)n(C)c2n1,>57,25%
COc1ccc(C2/C(=C(/O)c3ccccc3)C(=O)C(=O)N2CC(C)O)c(OC)c1 (configuration not stated),>57,11%

Next part; the last five above are carried over.
structure,SmPrx2 inh,LT uptake inh
Cc1[nH]c2ccccc2c(=O)c1CN(C)Cc1ccccc1,>57,3%
CC(=O)SCC[N+](C)(C)C,>57,4%
Cc1nnc(Sc2nc3ccccc3o2)c2ccccc12,?,?
CCc1nc(SCC(=O)N2CCCc3ccccc32)c2c(=O)n(C)c(=O)n(C)c2n1,>57,25%
COc1ccc(C2/C(=C(/O)c3ccccc3)C(=O)C(=O)N2CC(C)O)c(OC)c1 (configuration not stated),>57,11%
Cc1cccn2c(=O)c3cc(C(=O)N4CCCc5ccccc54)n(C)c3nc12,>57,5%
O=C1NC(=O)c2cc([N+](=O)[O-])ccc21,·,10%
COc1cc(CN/C(C)=C(\C#N)C(N)=O)cc(OC)c1OC,>57,3%
Nc1nc2c(c(=O)[nH]1)N(C=O)[C@H](CNc1ccc(C(=O)N[C@@H](CCC(=O)O)C(=O)O)cc1)CN2,>57,7%[3.58 µM]
Cc1ccc(-n2ncc3c(NCC4CCCO4)ncnc32)c(C)c1 (configuration not stated),>57,-21%
O=c1[nH]c2cc(C(F)(F)F)ccc2n1-c1cc(C(F)(F)F)ccc1O,·,-14%
COc1ccc(-c2[nH]ncc2-c2ccc3c(c2)OCCO3)c(O)c1,>57,-8%
Cc1nnc(SCC(=O)NC(C)c2ccccc2)[nH]c1=O (configuration not stated),·,-14%
CCCOc1ccc2oc(=O)c3c(c2c1)CCCN3C(=O)CN(C)Cc1ccccc1,>57,-9%
COc1ccc(CCNC(=O)Cc2nn(C)c(=O)c3ccccc23)cc1OC,>57,3%
COc1ccccc1N(CC(=O)NCc1ccccn1)S(C)(=O)=O,>57,-2%
Cc1cc(C)cc(NC(=O)Cn2ncn3c(cc4ccccc43)c2=O)c1,>57,-10%
COc1ccc(Nc2cc(C)nc3ncnn23)c(OC)c1,>57,4%
CCOC(=O)CNC(=O)Cn1cnc2sc(C)c(S(=O)(=O)N3CCC(C)CC3)c2c1=O,>57,7%
O=C(CSc1nnnn1Cc1ccccc1)N1CCN(c2ccccc2)CC1,>57,-7%
Cc1cccc(-c2nc3ccccc3c3nncn23)c1,·,-12%
CCCCc1c(O)c2ccccc2[nH]c1=O,>57,-5%
CC(=O)Nc1ccc(NS(=O)(=O)c2cc(C)sc2C)cc1,>57,19%
Cc1ccc(O)c(-c2cc3ccccc3[nH]2)c1,·,?
Cn1c(SCC(=O)NCc2ccc3c(c2)OCO3)nnc1-c1cccs1,>57,-3%
CCOc1ccc(NC(=O)CSc2nc3cccnc3n2CCOC)cc1,>57,6%
CN1CC(=O)NC1=NC(=O)C12CC3CC(CC(C3)C1)C2,>57,-8%
O=C(CSc1nnc(CNC(=O)c2cccs2)o1)c1ccc(Cl)cc1,>57,2%
COC(=O)c1ccc(Cl)c(NC(=O)CN2CCOCC2)c1,>57,-1%
COc1ccccc1-c1nnc2n1N=C(C(C)(C)C)CS2,>57,-6%
CCNc1ncc2ncc(=O)n(Cc3ccc(F)cc3)c2n1,>57,-12%
O=C(O)C1CC(c2ccccc2F)=NO1 (configuration not stated),>57,-6%
CCn1c(SCc2nc3ccccc3s2)nnc1-c1cccs1,>57,1%
CN1C(=O)CC(N2CCC(c3nc4ccccc4s3)CC2)C1=O (configuration not stated),>57,9%
COc1ccccc1N1CCN(C(=O)c2nn(-c3ccccc3OC)c(=O)c3ccccc23)CC1,>57,-5%
C=CCn1c(Sc2nnc(C)s2)nc2c1c(=O)[nH]c(=O)n2C,>57,-9%
CCC(=O)O[C@@H]1[C@H](C)O[C@H](O[C@H]2[C@@H](N(C)C)[C@H](O)[C@@H](O[C@@H]3[C@@H](CC=O)C[C@@H](C)[C@@H](O)/C=C\C=C/C[C@@H](C)OC(=O)C[C@@H](OC(=O)CC)[C@H]3OC)O[C@H]2C)C[C@]1(C)O,>57,2%[3.58 µM]
Cn1c(=O)oc2cc(S(=O)(=O)N3CCOCC3)ccc21,>57,-3%
COC(=O)[C@H](CCSC)NC(=O)Nc1ccc(C(C)C)cc1,>57,-2%
Cc1ccccc1-c1cncnc1NC1CCNCC1,>57,?
CC(=Nc1ccc(O)cc1)c1sc2ccccc2c1O,>57,?
c1ccc2c(c1)OCC(CNc1ncnc3nc[nH]c13)O2 (configuration not stated),>57,12%
CCN1CCN(C(=O)N[C@H](C(=O)N[C@@H]2C(=O)N3C(C(=O)O)=C(CSc4nnnn4C)CS[C@@H]23)c2ccc(O)cc2)C(=O)C1=O,>57,-4%[3.58 µM]
c1ccoc1,·,?
CC[C@H](NC(=O)c1c(C)c(-c2ccccc2)nc2ccccc12)c1ccccc1,>57&>57,?

Of the compounds above, two contain a furan ring, fused or not.
structure,SmPrx2 inh,LT uptake inh
Cc1occc1-c1nnc(SCC(=O)c2c(N)n(Cc3ccccc3)c(=O)n(C)c2=O)n1C,>57,10%
c1ccoc1,·,?

The list continues.
structure,SmPrx2 inh,LT uptake inh
Cc1nnc2n1N=CC=C(c1ccccc1)S2,>57,5%
O=C(CC1SC(=Nc2ccccc2)N(CCCCO)C1=O)NCc1ccccc1 (configuration not stated),·,-11%
CCCCCOC(=O)CSc1nc2c(c(=O)[nH]c(=O)n2C)n1Cc1ccc(Cl)cc1,>57,-11%
CCOC(=O)c1sc(NC(=O)C2CCCO2)c(C(=O)OC)c1C (configuration not stated),>57,-4%
Cc1ccc(S(=O)(=O)N2CCC(C(=O)Nc3nnc(COc4ccccc4)s3)CC2)cc1,>57,-13%
C[C@@H](CNC1CCCCC1)OC(=O)c1ccccc1,>57,-5%[3.58 µM]
CN(C)c1ccc(C(=O)Nc2nc3c(s2)CCCC3)cc1,>57,13µM*
Cc1cc(C)n2nc(C(=O)OCC(=O)Nc3ccc4c(c3)OCO4)nc2n1,>57,11%
c1ccc2c3nnc4n(c-3nc2c1)CCCS4,>57,8%
O=C(Nc1nccs1)C1CCCN1S(=O)(=O)c1ccc(F)cc1 (configuration not stated),>57,6%
COc1ccc(NC(=O)CSc2nnc(-c3ccncc3)n2CC2CCCO2)c(OC)c1 (configuration not stated),>57,-2%
COc1ccc(OC)c(NC(=O)c2ccc(CN3CCOCC3)cc2)c1,·,-8%
Cn1ccnc1Sc1nc(Nc2cccc(Cl)c2)nc(N2CCOCC2)n1,·,-24%
CCCCC12CNCC(C)(CNC1)C2=O,>57,2%
O=C(NC1CCCc2ccccc21)C1CCN(S(=O)(=O)c2cnc[nH]2)CC1 (configuration not stated),>57,2%
O=C(O)CCSCC(=O)Nc1c(C(=O)C2CC2)oc2ccccc12,>57,1%
COc1ccccc1CN1CCN(C(=O)Cc2ccccc2)CC1,>57,-5%
COc1cc(N)c(Cl)cc1C(=O)NC1CCN(Cc2ccccc2)CC1,>26,-4%[3.58 µM]
O=C(CCC(=O)c1cccs1)OCC(=O)c1ccc(Cl)s1,>57,17%
COc1ncc2nc(C)c(=O)n(C3CC3)c2n1,>57,0%
CN(C)c1ncc2nc(-c3cccs3)c(=O)n(C[C@H]3CCCO3)c2n1,>57,?
COc1ccc(C(O)P(=O)(OC2CCCCC2)c2ccc(N(C)C)cc2)cc1OC (configuration not stated),>57,·
COc1ccc(CNC(=O)C2CCN(S(=O)(=O)c3cc(OC)ccc3OC)CC2)cc1,>57,-4%
CCc1nnc(NC(=O)CSc2nc3c(c(=O)n2-c2ccccc2OC)SCC3)s1,>57,0%
Cc1ccc(C(=O)NCC(=O)O)cc1S(=O)(=O)N1CCCCC1,>57,-2%
Cc1nn(C(C)(C)C)c(OC(=O)c2ccc3c(c2)OCO3)c1S(=O)(=O)c1ccccc1,>57,11%
CC(C)CCNC(=O)C(C)N(C(=O)Cn1nnc(-c2ccc(F)cc2)n1)C1CCCC1 (configuration not stated),>57,?
COC(=O)CN1C(=O)N(c2ccccc2)C(N(O)C(=O)Nc2ccccc2)C1(C)C (configuration not stated),>57,8%
O=C(Nc1ccc(N2CCOCC2)c(Cl)c1)c1ncn[nH]1,>57,?
C=CCOC(=O)C(C#N)c1nc2ccccc2nc1N1CCN(c2ccccc2OC)CC1 (configuration not stated),>57,·
Cc1nc(CCNC(=O)c2cccs2)cs1,>57,9%
Cc1sc(NC(=O)c2cccs2)c(C(N)=O)c1C,·,-2%
CCOc1ccccc1NC(=O)CSc1nnnn1-c1ccc(C(=O)OC)cc1,>57,12%
COc1ccccc1-c1nn2c(-c3ccccc3Cl)nnc2s1,>57,-18%
O=C(c1cc(-c2ccco2)on1)N1CCN(c2ccccc2)CC1,>57,-22%
Cc1oc(C(C)(C)C)c(CN2CCCC2)c1C(=O)O,>57,9%
CCCCn1c(C)c(C(=O)O)c2cc(OC)ccc21,>57,-6%
Cc1nc2c3ccccc3n(CC#N)c(=O)n2n1,>57,-11%
CN(C)Cc1ccccc1-c1ccc2ncnc(NC3CC3)c2c1,>57,-4%
CCCCCCNS(=O)(=O)c1nc2nc(C)cc(C)n2n1,>57,2%
COc1ccc(Br)cc1C(=O)Nc1ccc(N2CCN(S(C)(=O)=O)CC2)cc1,>57,0%
Cn1c(COc2ccc(Cl)cc2)nnc1SCc1ncc(-c2ccccc2)o1,>57,9%
CCCCOc1ccc(C(C)(O)CCN2CCOCC2)cc1 (configuration not stated),>57,-5%
CCOC(=O)c1cnc2ccc(Cl)cc2c1N1CCN(C)CC1,>57,-16%
CN(C)S(=O)(=O)Nc1ccc2c(c1)OCO2,>57,2%
CN(C)C(=O)c1ccc(-c2cc(NCc3cccnc3)ncn2)cc1,>57,-4%
COc1cc(C(=O)NC2CC3CCCC(C2)N3C2CC2)cc(OC)c1OC (configuration not stated),·,-2%
O=C1CC(=O)N(Cc2cccs2)C(=O)N1,>57,-15%
Cc1cc(=O)cc(C)n1-c1ccc2c(c1)nc(C)n2-c1ccccc1,>57,8%
Cc1cccc2sc(NC(=O)CCNS(=O)(=O)c3cccs3)nc12,·,-24%

Later entries:
structure,SmPrx2 inh,LT uptake inh
N#CCCn1c(=O)cnc2cnc(N3CCOCC3)nc21,>57,0%
Cn1c(=O)c2c(nc(-n3ccnc3)n2Cc2ccccc2)n(C)c1=O,>57,4%
COC(=O)c1c(N)n(-c2ccc(N3CCOCC3)cc2)c2nc3ccccc3nc12,>57,-6%
CN(C)Cc1ccccc1-c1nccc(NCc2cccs2)n1,>57,-8%
COc1ccccc1OCCCn1cc(C#N)c2ccccc21,>57,?
CC1CCc2nn(CC(=O)N3CCN(C(=O)c4ccco4)CC3)cc2C1 (configuration not stated),>57,14%

An excerpt; the hit share may differ from the screen's.
